Source: PubChem (National Center for Advancing Translational Sciences (NCATS))
VACV mCherry inh: qHTS for Stage-Specific Inhibitors of Vaccinia Orthopoxvirus: mCherry Reporter Primary qHTS; Vaccinia virus mCherry reporter infection, fluorescence; about a quarter of the inactives have no number; Potency, µM (top dose mostly 36.5 µM), for the others: at the highest dose activity change, negative = inhibition, most hits filed as inhibitors; 310,000 compounds, 0.63% hits; AID 720579, 2013; active = well fitted inhibition curve with a large enough effect; inconclusive = small, poorly fitted or top-dose-only effect; inactive = no such curve, though single readings can be large or run the other way; tested in A549 cells; note: nearly all actives have a fitted effect of over 35% in size; inactives centre near -10
VACV Venus inh: qHTS for Stage-Specific Inhibitors of Vaccinia Orthopoxvirus: Venus Reporter Primary qHTS; Vaccinia virus Venus reporter expression, fluorescence; Potency, µM (series often up to 36.5 µM), inactives show top-dose activity change, negative = inhibition, most hits filed as inhibitors; 330,000 compounds, 0.46% hits; active means well fitted inhibition curve with a large enough effect; inconclusive means small, poorly fitted or top-dose-only effect; inactive means no such curve, though single readings can be large or run the other way; tested in A549 cells; note: nearly all actives have a fitted effect of over 30% in size; inactives centre near -10
Starred values were filed as active, the others as inactive; i = inactive; ? = inconclusive; · = no result given; & = joins results of further samples; [ ] = dose if it differs, or a comment. % is set by controls: 0 for no effect and ±100 for the full control effect; potency is the fitted concentration of half-maximal effect.

Start of the data: the first five entries, to show the layout:
smiles	VACV mCherry inh	VACV Venus inh
CCN(CC)CCCNC(=O)C(=O)Nc1ccc2nc3n(c(=O)c2c1)CCCCC3	1%	-2%
COc1ccccc1CCNC(=O)CSc1nc(-c2ccco2)cc(C(F)(F)F)n1	i	-5%
CCOC(=O)c1ccccc1NC1(c2ccc(OC)cc2)C(=O)c2ccccc2C1=O	-22%	-14%
Cc1ccc(-c2nc(CS(=O)(=O)CC(=O)NCCCN3CCOCC3)c(C)o2)cc1	-26%	?
CCN(CC)S(=O)(=O)c1ccc(C(=O)OCC(=O)N2CCOCC2)cc1	21%	-1%

The whole of this part (from the top)
smiles	VACV mCherry inh	VACV Venus inh
CCN(CC)CCCNC(=O)C(=O)Nc1ccc2nc3n(c(=O)c2c1)CCCCC3	1%	-2%
COc1ccccc1CCNC(=O)CSc1nc(-c2ccco2)cc(C(F)(F)F)n1	i	-5%
CCOC(=O)c1ccccc1NC1(c2ccc(OC)cc2)C(=O)c2ccccc2C1=O	-22%	-14%
Cc1ccc(-c2nc(CS(=O)(=O)CC(=O)NCCCN3CCOCC3)c(C)o2)cc1	-26%	?
CCN(CC)S(=O)(=O)c1ccc(C(=O)OCC(=O)N2CCOCC2)cc1	21%	-1%
CCN(CC)CCN1C(=O)C(=O)/C(=C(/O)c2ccc(S(=O)(=O)N3CCOCC3)cc2)C1c1ccc(C(C)(C)C)cc1 (stereo not given)	i	-7%
CC1(OC(=O)CCc2ccccc2)C(=O)C=C2C=C3CCCN3C=C2C1=O (stereo not given)	-14%	-2%
CCOC(=O)[C@H]1[C@H]2COc3ccc(OC)cc3[C@@H]2N2C(=O)c3ccc(C)cc3NC(=O)[C@@]12C	i	-16%
c1ccc(C2CC3CC4(CCCC4)N2O3)cc1 (stereo not given)	-13%	-2%
CN(C(=O)COc1cc(=O)n(C)c2ccccc12)c1cccc(Cl)c1	-11%	0%
CCOCCCNC(=O)Cn1cnc2c(cnn2-c2ccc(OC)cc2)c1=O	i	-7%
Cn1c(=O)[nH]c(=O)c2c1nc(N1CCOCC1)n2CCN1CCOCC1	-8%	-4%
CC(NC(=O)CNC(=S)N(Cc1cccs1)C1CCCC1)c1ccccc1 (stereo not given)	-23%	-7%
CSc1nc(-c2cccs2)c(C#N)c(=O)[nH]1	i[7.34 µM]	-13%[7.34 µM]
CC1CCN(CCCNc2cc(NCCO)c([N+](=O)[O-])c3nonc23)CC1	-5%	3%
N#C/C(=C\c1c(Oc2ccc(Br)cc2)nc2ccccn2c1=O)c1nc2ccccc2s1	-3%	-12%
CCCCC1CCC(C(=O)OCC(=O)Nc2ccc(S(N)(=O)=O)cc2)CC1 (stereo not given)	i	-13%
OCC1CCCN(C(=S)Nc2ccc(Oc3ccccc3)cc2)C1 (stereo not given)	-16%	-26%
COC(=O)C1=C(C(C)=O)C(c2ccc(C)cc2)n2nnnc2N1 (stereo not given)	-5%	-4%
Cc1nn(Cc2ccc(Br)cc2)c(C)c1NC(=O)c1nn(C)cc1Cl	·	-27%
O=C(COC(=O)c1ccc[nH]c1=O)NC1CCCC1	i	-16%
CCc1ccc(OCC(=O)NC(=S)Nc2ccc(F)cc2)c(Br)c1	-16%	?
COc1ccc(OC(C)C(=O)Nc2cccc([N+](=O)[O-])c2)cc1 (stereo not given)	i	-10%
O=C1CCCN1c1cc(Cl)cc(Cl)c1	i	-7%
O=C(Oc1ccc(C(=S)N2CCOCC2)cc1)c1ccc(F)cc1	-9%	6%
CCCC(CCC)C(=O)Nc1cccc(-c2nc3cccnc3s2)c1C	?	-29%
Cc1cc(C)cc(NC(=O)CSc2nnc(-c3cc4occc4n3C)n2-c2ccccc2C)c1	-19%	-17%
C/C(CC(=O)Nc1ccc(Cl)cc1Cl)=N\NC(=O)c1cnccn1	-18%	-23%
CCOc1ccc(C=NNc2ccc(S(=O)(=O)Nc3ccccc3C(=O)O)cc2[N+](=O)[O-])cc1	5%	-3%
COCCn1c(C)cc(C(=O)COc2ccc(N(C)S(=O)(=O)c3ccc(C)cc3)cc2)c1C	-10%	-17%
Cc1ccc2c(c1)N=C(c1ccccc1)CC(C(Cl)Cl)=N2	-15%	-13%
COC(=O)C1(C)NC(=O)c2ccccc2N1 (stereo not given)	0%	-1%
O=C(c1n[nH]c(=O)c2ccccc12)N1CCN(Cc2ccc3c(c2)OCO3)CC1	-5%	-14%
CCN1CCN(c2ccc(S(=O)(=O)N3CCCCC3)cc2NC(=O)c2ccc(F)cc2)CC1	-24%	-14%
COC(=O)[C@]1(C)N[C@H](CN(C)C(=O)c2ccc(F)cc2)[C@@H]2C(=O)N(C)C(=O)[C@@H]21	-19%	-9%
O=C(c1ccc(OC2CCN(CCCc3ccccc3)CC2)cc1)N1CCCC1	i	-18%
NS(=O)(=O)c1ccc(NC(=S)N2CCN(Cc3ccc(Cl)c(Cl)c3)CC2)cc1	-18%	-11%
COc1cc(OC)cc(-c2nnc(SCC(=O)NCc3cccs3)o2)c1	-13%	-4%
CCCCCCCN1CCC(=O)N([C@H](CO)CC(C)C)CC1	-4%	-19%
CC(=O)Nc1ccc(-n2nnnc2SCC(=O)NC2CCCC2)cc1	-12%	-11%
CCCOc1ccc(C(=O)CCNc2ccc(C)c(Cl)c2)cc1	-25%	-2%
CCC(C)[C@H]1CNC(=O)C(=O)N1CCc1cccc(F)c1 (stereo not given in full)	-10%	-5%
CC1C(=O)NN=C1C(=O)N/N=C/c1cccs1 (stereo not given)	i	0%
COC(=O)C1=C(C)N(c2cc(C)cc(C)c2)/C(=C/c2ccco2)C1=O	-1%	-16%
Cc1cc(C)c(NC(=O)CS(=O)CC(=O)NCCN2CCCCCC2)c(C)c1 (stereo not given)	-14%	-6%
CCOC(=O)c1cc(-c2ccccc2)n(-c2cccc(C(=O)NC(C)CC)c2)c1C (stereo not given)	-5%	-14%
CCCc1ccc(NC(=O)C2CCN(c3cnccn3)CC2)cc1	0%&-13%	-22%&-15%
C[C@@H](N)Cc1cnc[nH]1	-19%	-19%&-17%
O=C(Cn1cc(C(F)(F)F)ccc1=O)N/N=C/c1ccc(Cl)cc1Cl	i	-8%
Cc1ccccc1COC(=O)c1ccc(-c2nnn(Cc3ccccc3F)n2)cc1	-12%	-6%
CC(C)(C)C(=O)Nc1ccc(S(=O)(=O)N2CC3CC(C2)c2cccc(=O)n2C3)cc1 (stereo not given)	i	-13%
CC(=O)Nc1cccc2cc(S(=O)(=O)O)ccc12	2%	0%
CCCN1CCN(CCNC(=O)Nc2ccccc2Cl)CC1	-12%	-8%
COc1ccc(-c2cn3cccnc3n2)cc1NC(=O)c1c(F)cccc1F	-13%	-5%
CN1C(=O)Cc2cc(S(=O)(=O)CCC(=O)Nc3ccc(Cl)cc3)ccc21	i	-10%
O=C1C(Cl)=C(NC2CCCCC2)C(=O)N1Cc1ccccc1	i	-5%
CCN1C(=O)N[C@@H](c2cccc(C(F)(F)F)c2)C(C(=O)OC)=C1C	i	-9%
O=C(NCC1COc2ccccc2O1)C1CCCN(S(=O)(=O)c2cccc3cccnc23)C1 (stereo not given)	-13%	-10%
OC1(c2ccc(Br)cc2)CN(c2ccccc2)C2=[N+]1CCS2 (stereo not given)	-23%	-11%
COc1ccc(Cl)cc1NC(=O)CN(C)CC(=O)Nc1ccccc1N1CCOCC1	i	-7%

Next part.
smiles	VACV mCherry inh	VACV Venus inh
CC1CN(C(=O)N2CCC(C(=O)NC3CCCCCC3)CC2)c2cc(Cl)ccc2O1 (stereo not given)	-11%	-13%
O=C(O)CCC(=O)Nc1ccc(-c2nc3ccc(C(=O)c4ccccc4)cc3[nH]2)cc1	i	-15%
COC(=O)Nc1sc2c(c1C(N)=O)CCCCCC2	-26%	-13%
CN1CCN(C(=O)CSc2nnc(COc3ccccc3)o2)CC1	3%	-13%
Cc1nn(C2CCOC(C)(C)C2)c2c1C(c1ccc3c(c1)OCO3)SCC(=O)N2 (stereo not given)	·	-4%
Cc1ccc(S(=O)(=O)n2c(N)nc3ccccc32)cc1	-26%	-25%
Cc1ccc(-c2nnc(SCC(=O)NCCC(C)C)nc2-c2ccc(C)cc2)cc1	-23%	-22%
O=C(CCc1nc(-c2ccccc2F)no1)N1CCC2(CC1)OCCO2	·	20%
Cc1ccc(S(=O)(=O)Cc2ccc(C(=O)OCc3ccccc3)cc2)cc1	-7%	-26%
OCCn1c(C(F)(F)F)nc2ccccc21	i	4%
Cc1cccc(C(=O)Nc2cccc(C(=O)OCc3cc(=O)n4ccsc4n3)c2)c1	-11%	-14%
CCCn1nc(C(=O)Nc2cc(S(=O)(=O)Nc3ccc(OC)cc3)ccc2O)c2ccccc2c1=O	-10%	-14%
Cc1ccc(C(=O)NCCc2cccc(Cl)c2)cc1[N+](=O)[O-]	i	-5%
C/C(O)=C(\C#N)P(=O)(c1ccccc1)c1ccccc1	-13%	-1%
O=C(CSc1n[nH]c(-c2ccco2)n1)Nc1ccccc1F	i	-3%
CCCC(C)c1nnc(NC(=O)C2CC(=O)N(CCc3ccc(F)cc3)C2)s1 (stereo not given)	-22%	-13%
O=C(CSc1nnc(-c2cccs2)n1CC1CCCO1)N1CCCC1 (stereo not given)	-12%	-11%
Cc1ccccc1NS(=O)(=O)c1ccc2[nH]c(=O)[nH]c2c1	-2%	0%
CCOc1ccc(C(=O)Nc2ccc3oc(-c4cccc5ccccc45)nc3c2)cc1	?	-29%
Cc1cnc2cc(Cl)ccc2c1SCC(=O)O	i	-8%
COCCCN=Cc1c(-c2ccccc2)[nH]n(-c2nc3ccccc3s2)c1=O	-1%	-5%
CC(C)(C)c1ccc(NC(=O)N2CCN(c3ccc([N+](=O)[O-])cn3)CC2)cc1	i	-12%
O=C(CCN1CCN(c2ccccc2F)CC1)c1ccc(Br)cc1	·	-6%
COc1cc2c(cc1OC)n(CC(=O)c1ccc(C)cc1C)c(=O)n1nc(CCn3nc(C)cc3C)nc21	-10%	-5%
CCOc1cc(C(=O)Nc2ccc(C(=O)NCCN(CC)CC)cc2)ccc1OCC(=O)N1CCOCC1	i	-11%
COc1ccc(OC2(C)CCN(Cc3ccccc3OC(F)F)C2)cc1 (stereo not given)	-7%	-1%
CCc1cccc(C)c1NC(=O)COCc1cc(-c2ccc3c(c2)OCO3)on1	-18%	-12%
CCN1CCC(N(Cc2ccc3c(c2)OCO3)C(=O)Nc2ccccc2OC)CC1	-12%	-9%
N#C/C(=C\c1cccs1)C(=O)Nc1nccs1	-11%	-1%
CCCSc1ncc(Cl)c(C(=O)Nc2sc3c(c2C(N)=O)CCCC3)n1	0%&-5%	3%&-6%
Nc1cc(=O)nc(SCC(=O)Nc2ccc(F)cc2)n1-c1ccc(Cl)cc1	2%	-8%
COCCNc1nc2sc3c(c2c(=O)n1Cc1ccco1)CCCCC3	i	?
COCc1cc(=O)[nH]c(-c2ccc(C(F)(F)F)cc2)n1	-12%	-22%
CSc1nc2c(c(=O)[nH]1)C(c1ccccc1Cl)CC(=O)N2 (stereo not given)	i	-8%
Oc1c(C(c2ccc(Cl)cc2Cl)N2CCOCC2)sc2nc(-c3ccco3)nn12 (stereo not given)	-6%	-2%
CCCC(C)NC(=O)c1ccc(F)cc1 (stereo not given)	-3%	-11%
CCCC(=O)NCC(c1ccc2c(c1)OCO2)N1CCOCC1 (stereo not given)	-4%	-1%
C/C(=N\NC(=O)c1ccncc1)c1cccc(NC(=O)c2ccc(C(C)(C)C)cc2)c1	-24%	-19%
Cc1ccc(C2(c3noc(CN(C)Cc4cnn(C)c4)n3)CCCC2)cc1	-9%	-18%
O=Cc1c(NC2CCCCC2)c2ccccc2[nH]c1=O	-12%	0%
COc1ccccc1C(=O)NCCC(=O)NCC(c1ccc(F)cc1)N1CCOCC1 (stereo not given)	i	-7%
Cc1cc(C)c(C#N)c(SCC(=O)NN2CC(=O)N(c3ccccc3F)CC2=O)n1	-9%	-9%
CCc1cccc(CC)c1NC(=O)C(CC)Sc1nc2ccsc2c(=O)n1CCC(=O)O (stereo not given)	i	-12%
COc1ccccc1CNC(=O)COC(=O)c1cccnc1SCC(=O)NCc1ccccc1OC	-3%	-8%
COc1ccccc1-n1cc(-c2ccc(Cl)cc2)[nH]c1=O	-9%	-12%
O=C(CCSc1ccc(Cl)cc1)NC1CCCCC1	i	-11%
O=C(O)c1ccccc1C(=O)N1CC=C(c2ccccc2)CC1	·	-19%
COc1ccc2c(c1)C(=O)CCC2c1ccccc1 (stereo not given)	-7%	-10%
Cc1ccc(NC(=O)CSc2nnc(CNC(=O)c3ccco3)n2C)cc1C	i	-14%
Cc1ccc(S(=O)(=O)CC(=O)N2CCN(c3ccc([N+](=O)[O-])cc3)CC2)cc1	-16%	11%
C[C@H]1COC(=O)[C@@H](Cc2ccc(F)cc2)C/C=C\C[C@@H](CC(=O)NCCO)C(=O)N1	i	-1%
CC(=O)N1CCN(c2ccc([N+](=O)[O-])c(-n3nc(C)cc3C)c2)CC1	i	-6%
Cc1ccc(S(=O)(=O)Nc2cnc3ccccc3c2)cc1	-10%	-24%
